Screens from PubChem.
NPYLR7 agonist = activates Aedes aegypti NPYLR7 receptor; HEK293T NPYLR7/Galpha15, GCaMP6s calcium fluorescence; activation, % at 10 µM; 0.15% of 270,000 active; in the data active = activation above about 40%;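 also: 0% = vehicle and 100% = reference agonist at the receptor; some compounds past the cut are filed as inactive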
NPYLR7 agonist max-min = also measured in NPYLR7 agonist; calls as there; activation, %; measured here: Max-Min RFU normalised activation; some inactives read as strong as hits;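 span of the calcium signal over five minutes; 0% = vehicle and 100% = native peptide agonist; compound fluorescence can raise it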
An asterisk follows results filed as active; & = joins results of further samples. A portion of the library; rates above refer to the full screens.

The first two entries, to show the layout:
no.	Molecule	NPYLR7 agonist	NPYLR7 agonist max-min
1	Cc1ccccc1C1CC(=O)c2c(C)nc(N3CCC(C(N)=O)CC3)nc2C1 (centres undefined)	8	5
2	O=C(Cn1cc2c(n1)CCCCC2)NCC1CCCO1 (centres undefined)	4	2

This part in full, repeating the preview:
no.	Molecule	NPYLR7 agonist	NPYLR7 agonist max-min
1	Cc1ccccc1C1CC(=O)c2c(C)nc(N3CCC(C(N)=O)CC3)nc2C1 (centres undefined)	8	5
2	O=C(Cn1cc2c(n1)CCCCC2)NCC1CCCO1 (centres undefined)	4	2
3	CNC(=O)c1ccsc1NC(=O)c1ccc(Cl)s1	5	2
4	CN(C)c1ncccc1NC(=O)C12CC3CC(CC(Br)(C3)C1)C2	8	7
5	CCOc1ccc2c(c1)c(=O)c(S(=O)(=O)c1ccc(OC)cc1)cn2Cc1cccc(C)c1	-6	-10
6	O=C(CCc1nc2sc3c(c2c(=O)[nH]1)CCCC3)N1CCCCC1	4	1
7	COc1ccc2[nH]cc(CCNC(=O)c3ccc(Cl)cc3Cl)c2c1	8	8
8	Cc1c(C(=O)N2CCNCC2C(=O)N2CCOCC2)sc2ccccc12 (centres undefined)	7	3
9	Cc1cc(C)n(C(C)C(=O)N(Cc2cnn(C)c2)C(C)C)n1 (centres undefined)	3	12
10	C/C(=C\C#N)CCc1ccccc1	-1	-4
11	CO[C@H]1C(=O)N(Cc2ccccc2)C2(CCN(C(=O)OCC(C)C)CC2)[C@@H]1CO	0	9
12	CC(Oc1ccc(F)cc1)c1nnc(Sc2ccc(C#N)cn2)o1 (centres undefined)	-2	-5
13	Cc1ccc(N(CCCCN2C(=O)c3ccccc3C2=O)C(=O)c2ccc([N+](=O)[O-])cc2)cc1	-3	-3
14	CC(C)c1noc(C2CCN(CCC(=O)Nc3cc(F)ccc3F)CC2)n1	17	10
15	Cc1nc(SCC(=O)c2cccs2)c2oc3ccccc3c2n1	3	-1
16	O=C(O)c1ccc(C2CCN(C(=O)c3cccc(-c4ncc[nH]4)c3)C2)cc1 (centres undefined)	15	5
17	O=C(C(c1ccccc1)c1ccccc1)N(CC(=O)N1CCc2sccc2C1c1ccc(Cl)cc1)C1CC1 (centres undefined)	-3	7
18	O=C(CCN(Cc1ccccc1)c1nc(Cc2ccccc2)ns1)NCc1cccc(C(F)(F)F)c1	-12	-16
19	CC(C)(Oc1ccc(Cl)cc1)C(=O)NCc1ccc(S(N)(=O)=O)cc1	10	4
20	CCN(CC)C(=O)c1ccc(NS(=O)(=O)c2ccc(F)cc2[N+](=O)[O-])cc1	12	4
21	O=S(=O)(NCc1ccccc1)NC1CCc2cccnc21 (centres undefined)	6	4
22	COc1ccc2nc(-c3ccc(C)c(NS(=O)(=O)c4cc(F)ccc4OC)c3)cn2n1	-12	-15
23	O=C(CCN(Cc1ccco1)c1nc(C2CC2)nc2cc(Cl)ccc12)NCc1cccc(C(F)(F)F)c1	2	12
24	CCOC(=O)C1(Cc2ccccc2Cl)CCN(C(=O)Cc2c(C)noc2C)CC1	0	-4

Some of the entries so far, screen by screen:
#15 Cc1nc(SCC(=O)c2cccs2)c2oc3ccccc3c2n1
#16 O=C(O)c1ccc(C2CCN(C(=O)c3cccc(-c4ncc[nH]4)c3)C2)cc1 (centres undefined)
#17 O=C(C(c1ccccc1)c1ccccc1)N(CC(=O)N1CCc2sccc2C1c1ccc(Cl)cc1)C1CC1 (centres undefined)
#18 O=C(CCN(Cc1ccccc1)c1nc(Cc2ccccc2)ns1)NCc1cccc(C(F)(F)F)c1
assay / compound,15,16,17,18
NPYLR7 agonist,3,15,-3,-12
NPYLR7 agonist max-min,-1,5,7,-16

Next section.
no.	Molecule	NPYLR7 agonist	NPYLR7 agonist max-min
25	N#CCOc1ccc(C(=O)Nc2ccccc2C(F)(F)F)cc1	0	-1
26	CCCc1nc(N2CCN(C(=O)c3ccccc3OC)CC2)c2c3c(sc2n1)CCCC3	15	18
27	O=C1NC(=Nc2ccccc2Cl)S/C1=C/c1ccccc1Cl	-4	-10
28	CC(C(=O)NCCc1cccc(F)c1)N1CCc2ccccc21 (centres undefined)	1	3
29	O=C(CCN1CCN(C(=O)C2CC2)CC1)Nc1cc(Cl)ccc1Cl	0	-3
30	COc1ccc(C(O)P(=O)(OCCC(C)C)c2ccc(N(C)C)cc2)cc1OC (centres undefined)	0	6
31	COc1ccccc1C1c2cccn2CCCN1Cc1ccccc1C(F)(F)F (centres undefined)	12	13
32	CCOCCCn1c(C)c(C)n2c3c(=O)n(Cc4ccccc4)c(=O)n(C)c3nc12	-1	5
33	COc1cc(C)ccc1S(=O)(=O)N1CCN(c2cccc(C)c2C)CC1	3	0
34	CCN(CC)C(=O)C1CCN(C(=O)Nc2cccc3ccccc23)CC1	3	4
35	O=C(CC1c2ccccc2CCc2ccccc21)NCCCn1ccnc1	4	0
36	CC(=O)Oc1c(-c2ccc(NC(=O)C3CCCC3)cc2)c(-c2cccc(F)c2)nn1-c1ccc(C)cc1	-1	5
37	CC1CCN(c2ccc(NC(=O)Nc3c(Cl)cccc3Cl)cc2C(=O)NC(C)c2ccccc2)CC1 (centres undefined)	-3	10
38	CCNc1ncc(C(=O)N(C)C2CCCc3ccccc32)cn1 (centres undefined)	22	9
39	COc1c(Cl)cc(Cl)cc1C=NNC(=O)c1ccncc1	1	1
40	CC(C)c1ccc(NC2CCCN(c3cncc(C(=O)N(C)C)n3)C2)cc1 (centres undefined)	6	4
41	OCc1ccccc1-c1nccc2ccccc12	2	3
42	Cc1ccc(CNC(=O)CSc2nnc(CCn3ccc(=O)[nH]c3=O)o2)cc1	0	-1
43	N#CC(C(=O)COc1cc(F)ccc1F)c1nc2ccccc2s1 (centres undefined)	9	7
44	O=C(Cc1ccc(-n2cnnn2)cc1)OCC1CCCCO1 (centres undefined)	1	-1
45	Cc1ccccc1OCC(O)CN(Cc1ccco1)Cc1cccn1C (centres undefined)	30	33
46	COc1ccc(C2C(C(N)=O)=C(C)Nc3ncnn32)cc1 (centres undefined)	-1	6
47	O=S(=O)(c1ccc(N2CCCCC2)c(NCc2ccc(Cl)cc2)c1)N1CCOCC1	0	-3
48	COc1cccc(Cc2nc3c(c(N4CCOCC4)n2)CN(S(=O)(=O)c2ccc(Cl)cc2)CC3)c1	1	3
49	CCC1(CC)NC(=O)N(CC(=O)N2c3ccccc3SCC2c2ccccc2)C1=O (centres undefined)	-1	21
50	COc1cc(C2CC(=O)c3cc4c(=O)[nH][nH]c4nc3C2)cc(OC)c1OC (centres undefined)	-3	-7
51	Cc1ccc(CNC(=O)COC(=O)C2COCCO2)cc1F (centres undefined)	-3	-4
52	C=CCN(CC=C)C(=O)CNC1CCN(S(C)(=O)=O)CC1	5	-5
53	O=C(Cn1nc2c(c1NC(=O)c1cccs1)CSC2)NCc1ccco1	-2	4
54	CCOC(=O)CCC(=O)N1CCN(C(C(=O)Nc2ccc(OC)cc2)C2CCCC2)CC1 (centres undefined)	1	6
55	Cc1cc(Cl)ccc1C(=O)C1CCCN(C(=O)c2ccccc2N2CCOCC2)C1 (centres undefined)	6&1	3&-1
56	CCCN(Cc1cnc(S(C)(=O)=O)n1CC1CCCO1)CC1CC1 (centres undefined)	-2	-4
57	Cc1ccc(-c2nc3cc(Cl)ccc3o2)cc1NC(=O)c1ccc(Cl)c([N+](=O)[O-])c1	-10	-22
58	CCCn1c(N)c(C(=O)CSc2nc(C)nc3sc(C)c(C)c23)c(=O)[nH]c1=O	-1	-2
59	CCn1c(C2CCN(C(=O)CC3=CCNCC3)CC2)n[nH]c1=O	4	3
60	CSc1nc2ccc(N=Cc3ccc4ncccc4c3)cc2s1	-5	-8
61	Cc1ccc2[nH]nc(C(=O)N3CCCC(CCc4ccccc4C)C3)c2c1 (centres undefined)	5	1
62	CC(OC(=O)c1ccc(OCC2CCCO2)cc1)C(=O)Nc1nc(-c2ccc(F)c(F)c2)cs1 (centres undefined)	1	-1
63	O=C(COc1cccc(Cl)c1)N=Nc1c(O)[nH]c2ccccc12	5	-1
64	CN(Cc1nc2ccc(F)cc2[nH]1)Cc1ccc(-c2ccn[nH]2)o1	1	0
65	CC(C)CCn1c(SCC(=O)OCc2ccccc2)nc2c1c(=O)[nH]c(=O)n2C	7	2
66	O=C(C=Cc1cc(Br)ccc1F)OC1CCCC1=O (centres undefined)	0	1
67	CCn1nnnc1SCc1csc(COc2ccc(OC)cc2)n1	1	8
68	COc1ccc(OC)c(N2CCN(C(=O)c3ccc(Cl)c(Cl)c3)C(C)C2=O)c1 (centres undefined)	7	15
69	Cc1cccc(CO[C@]2(C(=O)NCCN3CCOCC3)CC(OCc3cccc(Cl)c3)[C@H](O)[C@H](O)C2)c1 (some centres undefined)	14	25
70	Cc1nn(CC(=O)NCc2ccccc2)c(=O)c2ccccc12	4	4
71	CCOCCOC(=O)C1=C(C)NC2=C(C(=O)CCC2)C1c1cccc(Br)c1 (centres undefined)	10	5
72	Cc1ccc(-c2cnn3c(NCCN(C)C)cc(C)nc23)cc1	2	6

Retrieved by compound from above:
no.	Molecule	NPYLR7 agonist	NPYLR7 agonist max-min
63	O=C(COc1cccc(Cl)c1)N=Nc1c(O)[nH]c2ccccc12	5	-1
69	Cc1cccc(CO[C@]2(C(=O)NCCN3CCOCC3)CC(OCc3cccc(Cl)c3)[C@H](O)[C@H](O)C2)c1 (some centres undefined)	14	25
64	CN(Cc1nc2ccc(F)cc2[nH]1)Cc1ccc(-c2ccn[nH]2)o1	1	0
62	CC(OC(=O)c1ccc(OCC2CCCO2)cc1)C(=O)Nc1nc(-c2ccc(F)c(F)c2)cs1 (centres undefined)	1	-1
66	O=C(C=Cc1cc(Br)ccc1F)OC1CCCC1=O (centres undefined)	0	1
67	CCn1nnnc1SCc1csc(COc2ccc(OC)cc2)n1	1	8
70	Cc1nn(CC(=O)NCc2ccccc2)c(=O)c2ccccc12	4	4

Other compounds follow.
no.	Molecule	NPYLR7 agonist	NPYLR7 agonist max-min
73	CC(C)c1nnc(NC(=O)CSc2nnc(N)s2)s1	1	1
74	COc1ccc(-c2noc(Cn3ccn4nc(-c5cccs5)cc4c3=O)n2)c(OC)c1	-1	-3
75	CN1C(=O)/C(=C\c2cccn2-c2ccc([N+](=O)[O-])cc2)SC1=S	-7	-9
76	Cc1ccccc1Cn1c(=O)c2c(nc3n(Cc4ccco4)c(C)cn23)n(C)c1=O	-1	-3
77	O=C(NCc1cc(F)cc(F)c1)C1CCN(c2ncccc2-c2nc(-c3ccccc3)no2)CC1	6	4
78	COc1ccc(S(=O)(=O)N2CC3(C)CC2CC(C)(C)C3)cc1 (centres undefined)	3	4
79	Cc1cc(C)c2c(n1)nn1c(NCc3cccnc3)cc(C)nc21	0	15
80	Cc1nc(Cl)sc1C(=O)N1CCCCC1CN1CCCC1=O (centres undefined)	13	8
81	O=C1/C(=C/c2ccc(Br)cc2)SC(=S)N1CN1CCOCC1	2	0
82	CCOC(=O)c1ccc2c(c1)nc(SCc1cc(F)ccc1Br)n2CCOC	6	4
83	O=C(c1ccco1)N(Cc1c(-c2ccc(F)cc2)noc1N1CCOCC1)CC1CC1	7	10
84	Cc1cc(N2C(=O)c3oc4ccccc4c(=O)c3C2c2cccc(F)c2)no1 (centres undefined)	-1	0
85	CCOC(=O)CCC(=O)N1CCN(c2nc(-c3cccc(C)c3)nc(C)c2CC)CC1	4	12
86	COc1cc(C=CC(=O)NCC(c2cccs2)N2CCOCC2)cc(OC)c1 (centres undefined)	-4	-5
87	Cc1[nH]cnc1-c1nccn1CCn1ccnc1	1	-2
88	CN(Cc1ccccc1)c1nc2c(c(=O)n(C)c(=O)n2C)n1CCCc1ccccc1	17	11
89	COc1ccc(NC2CCCN(C(=O)Cc3c[nH]c4ccccc34)C2)cc1 (centres undefined)	6	3
90	CC(NCc1ccc(N2CCOCC2)cc1)c1nnc2n1CCCC2 (centres undefined)	7	6
91	Cc1c(C(=O)OCC(C)NC(=O)OC(C)(C)C)nnn1-c1cccc2cccnc12 (centres undefined)	4	2
92	CC1CCC(NC(=O)NCC2CCCC2O)CC1 (centres undefined)	2	20
93	Cn1cc(CN2CCN(c3nc4ccccc4s3)CC2)c(-c2ccccc2F)n1	2	-1
